Screens (PubChem)
VDR inh = blocks the human vitamin D receptor; Potency, µM, for the others: max response, negative = inhibition, usual class: inhibitors; P11473; hit rate 0.93% among 400,000; VDR-SRC2-3 peptide fluorescence polarization, 2 h; active = well fitted inhibition curve with a large enough effect; inconclusive = small, poorly fitted or top-dose-only effect, or another doubt; inactive = no such curve, though single readings can be large or run the other way; also: series mostly up to about 120 µM
Target sequence (P11473 whole entry, looked up): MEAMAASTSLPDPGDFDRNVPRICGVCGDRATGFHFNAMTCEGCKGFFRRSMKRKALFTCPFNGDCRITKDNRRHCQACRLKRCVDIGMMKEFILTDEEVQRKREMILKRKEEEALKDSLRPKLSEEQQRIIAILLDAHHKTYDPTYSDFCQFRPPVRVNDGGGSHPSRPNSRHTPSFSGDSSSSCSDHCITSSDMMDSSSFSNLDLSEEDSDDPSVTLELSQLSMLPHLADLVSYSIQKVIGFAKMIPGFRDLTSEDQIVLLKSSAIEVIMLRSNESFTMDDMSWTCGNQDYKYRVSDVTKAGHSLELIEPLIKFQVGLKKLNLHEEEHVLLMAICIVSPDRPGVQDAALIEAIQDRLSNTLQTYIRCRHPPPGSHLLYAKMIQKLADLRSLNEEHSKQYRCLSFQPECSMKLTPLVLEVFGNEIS
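FP read-out; VDR + SRC2-3 coactivator peptide; 23 nl compound by pintool; 2 h RT incubation; reagents held at 4 deg C, protected from light.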
The depositor's hits bear a star; u = inconclusive; & = joins results of further samples. % is scaled to controls: 0 for no effect and ±100 for the full control effect; potency is read from the fitted curve at half-maximal effect.

VDR inh | SMILES
-17.9% | Cc1cccc(N(C(=O)Nc2ccc(Cl)cc2)C2=NCC(C)S2)n1 (stereo unspecified)
-14.8% | CC1CCc2c(sc3nc(-c4cc5ccccc5oc4=O)nc(Cl)c23)C1 (stereo unspecified)
34.0% | O=c1oc2cccnc2n1CCS(=O)(=O)c1ccc(F)cc1
8.7% | Cc1ccc(CNC(=O)CSc2ccc(-c3sc(-c4ccccc4)nc3C)nn2)cc1
-10.0% | Cc1ccc(S(=O)(=O)N(CC(=O)NCc2cccnc2)C2CCCCC2)cc1
-8.2% | CCOC(=O)/C=C/C(=O)N1CCc2ccccc21
-10.7% | CC(=O)Nc1ccc(NC(=O)C(C)OC(=O)CC2CCCC2)cc1 (stereo unspecified)
4.3% | Cc1ccc(S(=O)(=O)N2CCC3(CC2)OCCO3)s1
7.1% | Cc1ccc(NC(=O)CN(C)C(C)C(=O)N2CC(C)CC(C)C2)cc1 (stereo unspecified)
-26.6% | Cc1cc(NC(=S)N(CCN2CCOCC2)Cc2ccccc2F)ccc1Cl
-3.7% | CC(C)(C)NC(=O)Cn1cnc2cc([N+](=O)[O-])ccc2c1=O
-15.7% | Cc1cccc(C)c1NC(=S)NC(=O)c1ccccc1F
-7.6% | Cc1cc(C(=O)OCC(=O)Nc2cccc(S(=O)(=O)N(C)C)c2)c2ccccc2n1
0.0% | CCOc1ccccc1OCC(=O)Nc1c(C)n(C)n(-c2ccccc2)c1=O
-12.3% | COc1ccc(C(=O)NNC(=O)OC(C)(C)C)cc1
-4.8% | CCOC(=O)c1sc(NC(=O)c2ccco2)c(C#N)c1C

Rewritten with bars between the fields: two of the compounds above
mol | VDR inh
CC(C)(C)NC(=O)Cn1cnc2cc([N+](=O)[O-])ccc2c1=O | -3.7%
Cc1cc(C(=O)OCC(=O)Nc2cccc(S(=O)(=O)N(C)C)c2)c2ccccc2n1 | -7.6%

Following part:
VDR inh | SMILES
-4.7% | CC(C)(c1ccccc1)c1ccc(OCC(O)CNC2CCN(Cc3ccccc3)CC2)cc1 (stereo unspecified)
12.5% | C[C@H](CO)N1C[C@H](C)[C@@H](CN(C)C(=O)NC2CCCCC2)Oc2ccc(NS(C)(=O)=O)cc2C1=O
-6.8% | O=C(c1cccc(OC2CCN(C3CCCC3)CC2)c1)N1CCCCCCC1
-14.4% | CCC(C)(C)NC(=O)/C=C/c1ccccc1[N+](=O)[O-]
-8.9% | O=C(CCCl)Nc1cccc2cccnc12
-16.6% | COC(=O)c1cccc(Oc2cccc(Cl)n2)c1
-1.5% | O=C1CCC(C(=O)N2CCN(c3cnccn3)CC2)CN1CCc1ccc(Cl)cc1 (stereo unspecified)
u | Cc1c(C(=O)N2CCCCC2)c(S(=O)(=O)NCc2ccc(Cl)cc2)c(C)n1C
-3.4% | CC(=O)Nc1nonc1-c1nnc(SCc2ccc(Cl)cc2)n1C
-11.9% | C[C@H]1C(=O)N(c2ccccc2)[C@@H]1c1ccccc1
-11.1% | O=C(NS(=O)(=O)c1ccccc1)c1ccccc1
-21.8% | COc1ccccc1-n1c(=S)sc2c(=O)n(Cc3ccco3)c(SC)nc21
3.0% | CCOC(=O)CSc1nc2ccc(C)cc2cc1C#N
7.7% | COc1cccc(OC)c1C(=O)OCC(=O)/C(C#N)=C(\C)N
12.3% | COc1cc(NC(=S)NCc2ccc(S(N)(=O)=O)cc2)cc(OC)c1
-5.9% | CCCn1c(SCC(=O)Nc2cc(C)on2)nc2c1c(=O)n(C)c(=O)n2C
-10.7%&-7.8% | C1CCN2C[C@@H]3C[C@@H](CN4CCCC[C@@H]34)[C@H]2C1
-14.6% | O=C(NN=C(c1ccccc1)c1ccccc1)C(CCl)C1CCCCC1 (stereo unspecified)
6.4% | Cc1cccc2sc(N(Cc3cccnc3)C(=O)CCOc3ccccc3)nc12
6.5% | COc1ccc(C(O)P(=O)(O)CCc2ccccc2)cc1 (stereo unspecified)
8.2% | CC(C)(C)[C@H]1COC(=O)CC/C=C\C[C@@H](CC(=O)N(CCO)Cc2ccccc2)C(=O)N1
8.2% | O=C(Nc1cccc2nsnc12)c1ccc2c(c1)OCCO2
u | CCOC(=O)/C=C/C(=O)OCC(=O)Nc1cccc(Br)c1
-7.8% | O=C(CN1C(=O)c2ccccc2S1(=O)=O)c1ccc(Cl)cc1Cl
-11.8% | CCc1cccc(C)c1NC(=O)CSc1nc(-c2ccccc2F)nc2nc[nH]c12
-18.0% | C=CCOC(=O)C1=C(C)NC(SCC(=O)OCC)=C(C#N)C1c1ccc(O)c(OC)c1 (stereo unspecified)
-13.7% | O=C(COC(=O)C1CCN(c2ccc(C(F)(F)F)cn2)CC1)Nc1cc(F)ccc1F
10.4% | COC(=O)c1cc(OC)c(OC)cc1NC(=O)Nc1ccc(OC)cc1OC
-18.0% | CCCn1c(CN2CCN(C(=O)c3ccco3)CC2)nc2c1c(=O)n(C)c(=O)n2C
-1.8% | O=C(O)c1ccccc1N1C(=O)c2cccc3cccc(c23)C1=O
1.1% | O=C(COC(=O)Cn1ccc(=O)[nH]c1=O)Nc1ccc(F)cc1
-1.3% | Cc1ccc2c(c1)N(CC(=O)NCc1ccco1)C(=O)CO2

Six compounds already listed, arranged by the number in VDR inh, rising.
VDR inh | SMILES
-18.0% | C=CCOC(=O)C1=C(C)NC(SCC(=O)OCC)=C(C#N)C1c1ccc(O)c(OC)c1 (stereo unspecified)
-13.7% | O=C(COC(=O)C1CCN(c2ccc(C(F)(F)F)cn2)CC1)Nc1cc(F)ccc1F
-11.8% | CCc1cccc(C)c1NC(=O)CSc1nc(-c2ccccc2F)nc2nc[nH]c12
-1.8% | O=C(O)c1ccccc1N1C(=O)c2cccc3cccc(c23)C1=O
-1.3% | Cc1ccc2c(c1)N(CC(=O)NCc1ccco1)C(=O)CO2
1.1% | O=C(COC(=O)Cn1ccc(=O)[nH]c1=O)Nc1ccc(F)cc1

More results follow.
VDR inh | SMILES
0.3% | O=C1N(Cc2cccnc2)C[C@@H]2C[C@@H](c3ccc(-c4ccccc4)cc3)N3CCC[C@@]123
-1.0% | COc1ccccc1CNC(=O)c1cc2c(=O)oc3ccc(C)cc3c2s1
-9.0% | O=C(NC1CC2CCC1C2)C1COc2ccccc2O1 (stereo unspecified)
3.2% | Cc1cccc(NC(=O)C2CCN(S(=O)(=O)c3ccc4[nH]c5c(c4c3)CCCCC5)CC2)c1
7.2% | CN(C)CCCn1c(SCC(=O)Nc2nc(-c3cccc(Br)c3)cs2)nc2ccccc2c1=O
-5.3% | COC(=O)c1ccc(COc2cc([N+](=O)[O-])cc3cccnc23)o1
-18.6% | CCOC(=O)/C=C/c1ccc2c(c1)S(=O)(=O)N(Cc1ccc(OC)cc1)[C@H]2CC(=O)OCC
-11.1% | Cc1ccc(C(=O)C(C)OC(=O)Cn2[nH]c(=O)c3ccccc3c2=O)cc1C (stereo unspecified)
2.1% | CCOC(=O)C1(CCOc2ccccc2)CCN(Cc2cc(OC)c3c(c2)OCO3)CC1
u | COc1ccc(-c2cc(OC)c3ccccc3n2)cc1
-21.2% | COc1cc(/C=N/NC(=O)C(Cc2c[nH]c3ccccc23)NC(=O)OCc2ccccc2)cc([N+](=O)[O-])c1O (stereo unspecified)
-3.8% | C/C(=N/NC(=O)c1cc(C2CC2)[nH]n1)c1cccs1
-1.5% | O=c1cc(COc2cccc(C(F)(F)F)c2)nc2sc3c(n12)CCCC3
-25.3% | CCCN1CNc2c(c(=O)[nH]c(=S)n2CCc2ccccc2C)C1
-5.2% | CC(C)c1nc2sc3c(N4CCCCC4)ncnc3c2c2c1CCCC2
-6.8% | COc1ccc(C(=O)NCC2COc3ccccc3O2)cc1S(=O)(=O)N1CCOCC1 (stereo unspecified)
13.9%&-1.3% | CCc1ccccc1NC(=O)c1cc(-c2ccc(OC)cc2)on1
-15.6% | O=C(O)c1ccccc1/C=N/NC(=O)c1cc(-c2ccco2)nc2ccccc12
-6.8% | O=C(NCCOCC(F)(F)C(F)F)c1cc(F)c(F)cc1Cl
6.1% | CC(C)CC(=O)NCC(c1ccc2c(c1)OCO2)N1CCN(c2ccc(F)cc2)CC1 (stereo unspecified)
1.2% | CCN(CC)C(=O)c1ccccc1NC(=O)c1ccccc1SC
u | CC1(OC(=O)CCc2ccccc2)C(=O)C=C2C=C(c3ccc(C#N)cc3)N(C3CC3)C=C2C1=O (stereo unspecified)
11.8% | O=C(CNCC1CCCCC1)Nc1ccccc1N1CCCCC1
56.2µM* | c1ccc(Nc2ncncc2-c2ccoc2)cc1
11.2% | Cn1c(=O)c2[nH]c(COc3ccccc3)nc2n(C)c1=O
-7.7% | CCOC(=O)[C@@H]1[C@H]2COc3ccc(Br)cc3[C@@H]2N2C(=O)N(c3cccc(Cl)c3)C(=O)[C@]12C
13.5% | CCCC(c1nnnn1CS(=O)(=O)c1ccc(C)cc1)N1CCN(C2CCCC2)CC1 (stereo unspecified)
-0.3% | CC(=O)Nc1cc(NC(C)=O)c2nc(N)sc2c1
-20.8% | Cc1cc(C)c(C(=O)COC(=O)Cn2cnnn2)cc1C
2.0% | CCN(CC)CC(=O)N1c2ccccc2Oc2c(c(=O)n(C)c(=O)n2C)C1c1cccc([N+](=O)[O-])c1 (stereo unspecified)
-11.1% | CCN(CC)CCNC(=O)c1nn(C)c2c1CS(=O)(=O)c1ccccc1-2
-20.8% | CSc1nc2nc3c(cc2c(=O)n1-c1cccc(C)c1)COC(C)(C)C3
10.8% | COC(=O)c1ccc(OCC2c3cc(OC)c(OC)cc3CCN2C(=O)c2cccc(C)c2)cc1 (stereo unspecified)
4.3% | COc1ccc(C(=O)COc2cccc(NC(=O)c3ccco3)c2)cc1
-13.3% | CCOc1cc(CNc2ccc(C(=O)O)cc2)ccc1OCc1ccccc1
-8.8% | COc1cccc(Cn2c(Oc3ccccc3)nc3c2c(=O)n(C)c(=O)n3C)c1
24.1% | c1cc(CNCCN2CCNCC2)ccn1
44.7µM* | COc1cccc(-c2cc(N(C)Cc3ccco3)ncn2)c1
9.3% | Cn1cc(S(=O)(=O)N2CCCCCC2)cc1C(=O)N1CCN(c2ccccc2F)CC1
-7.4% | O=C(O)c1ccc(OCCN2CCCC2=O)cc1
10.5% | O=C(NCCc1ccc(F)cc1)C(=O)NCC(c1cccs1)S(=O)(=O)c1ccc(F)cc1 (stereo unspecified)
-17.5% | C=CCn1c(SCC(=O)CC(=O)OCC)nc2cc(C(=O)N3CCC(C(N)=O)CC3)ccc2c1=O
-0.7%&1.3% | COc1cccc(CNC(=O)C(C)n2ccc3cc(S(=O)(=O)N4CCCCCC4)ccc32)c1 (stereo unspecified)
1.0% | COCCNC(=O)/C(C#N)=C1\N=C(NC(=O)c2cccs2)c2ccccc21
-11.4% | CSc1ccc(C(=O)C2CCCN(C(=O)c3nn(C)c(=O)c4ccccc34)C2)cc1 (stereo unspecified)
9.6% | CC(C(=O)Nc1ccccc1C(=O)N1CCCC1)n1nnc2ccccc21 (stereo unspecified)
1.9% | Cc1ccc(N2C(=O)N(CC(=O)N(C)Cc3ccccc3)C(=O)C2C)cc1 (stereo unspecified)
-1.9% | Cc1csc(SC(C)C(=O)NCc2ccc3c(c2)OCO3)n1 (stereo unspecified)
-19.1% | Cc1cccc[n+]1CC(=O)c1ccc(NC(=O)c2ccccc2)cc1
-6.1% | CCOC(=O)NN1C(=O)c2ccccc2NC1c1cccs1 (stereo unspecified)
-23.4% | CCOc1ccc(CN2CCCN(C)CC2)cc1
-3.6% | CCOc1ccc(/C=N/n2c(SC)nnc2-c2ccccc2)cc1OCC
u | CCOc1cc(CNc2ccc(O)cc2)ccc1OCc1ccc(Cl)cc1
16.5% | CCCCOc1ccc(C(=O)NCc2cn3cccc(C)c3n2)cc1
8.6% | CC1=C(C)CC(C(=O)NCCc2ccc(F)cc2)C(C(=O)O)C1 (stereo unspecified)
6.6% | Cc1cccc(OCc2ccc(-c3nc(C#N)c(NCc4cccnc4)o3)o2)c1

As entered above:
CC1=C(C)CC(C(=O)NCCc2ccc(F)cc2)C(C(=O)O)C1 (stereo unspecified) in VDR inh: 8.6%
CCOc1ccc(CN2CCCN(C)CC2)cc1 in VDR inh: -23.4%
Cc1cccc(OCc2ccc(-c3nc(C#N)c(NCc4cccnc4)o3)o2)c1 in VDR inh: 6.6%
CCCCOc1ccc(C(=O)NCc2cn3cccc(C)c3n2)cc1 in VDR inh: 16.5%

The listing continues.
VDR inh | SMILES
-9.4% | COC(=O)CCc1n[nH]c(=O)[nH]c1=O
u | O=C(/C=C/c1ccccc1O)c1ccco1
-7.0% | Cc1ccc(-c2nnc(SCC(=O)NC3CCCc4ccccc43)n2N)cc1 (stereo unspecified)
-13.4% | O=C(Nc1ccc(N2CCOCC2)cc1)c1ccc2ncsc2c1
9.0% | COc1ccc(C(=O)NCCS(=O)(=O)N2CCCC2)cc1
-0.2% | CCOC(=O)N1CCN(C(=O)c2ccc(CS(=O)c3ccccc3)o2)CC1 (stereo unspecified)
3.4% | CC[C@@]1(C(=O)OC)N[C@H](CN(C)C(=O)Nc2ccccc2)[C@@H]2C(=O)N(C)C(=O)[C@@H]21
8.1% | O=C(Nc1ccc(OCC(=O)N2CCN(S(=O)(=O)c3ccccc3)CC2)cc1)c1ccco1
1.9% | CCNC(=O)c1ccc2nc(-c3ccccc3)c(-c3ccccc3)nc2c1
-3.4% | COCCCn1c(C)nnc1SCC(=O)Nc1ccc(C(C)=O)cc1
-6.3% | CCCOc1ccc(Cn2c(=O)oc3ccc(C)cc32)cc1
6.9% | Cc1ccccc1NC(=S)NC(NC(=O)C(C)(C)C)C(Cl)(Cl)Cl (stereo unspecified)
0.8% | COc1ccc2oc(-c3ccc(C)c(NC(=O)c4ccc(N5CCOCC5)c([N+](=O)[O-])c4)c3)nc2c1

A portion of the library; the hit share may differ from the screen's.
